Assay outcomes: PubChem BioAssay, SRMLSC
H5N1 antiviral: MDCK cell protection from H5N1 avian flu | cytopathic effect, luminescence, 72 h; active compounds read high; no value below 0 was filed and about half of the inactive calls have no number; reference of the scale not given here | inhibition, % at 50 µM | AID 740 | hit rate 0.07% among 96,000; in the data active = inhibition above about 25%
* hit, by the source's call; i = inactive.

Structure,H5N1 antiviral
CCc1nc(N2CCC(C)CC2)c2oc3ccccc3c2n1,i
CC(CP(=O)(O)O)NC(=O)Cc1ccccc1 (configuration not stated),i
CCC(c1nnnn1C(C)C)N1CCN(C2CCCC2)CC1 (configuration not stated),0.8
COc1ccc(C(=O)N2CCCc3ccccc32)cc1,0.5
Cc1cc(C)c(C(N)=O)c(NC(=O)Nc2ccccc2)n1,i
Cc1ccc(OCCCN(C)C)c(Br)c1,i
NC(=O)CSc1nnc(-c2ccoc2)o1,3.5
CCOc1cnc(-c2ccc(OC)cc2)o1,i
S=c1sc2c(N3CCN(Cc4ccccc4)CC3)ncnc2n1-c1ccccc1,1.1
CC(C)c1cc(Br)ccc1OCCCN1C(=O)NC(C)(C)C1=O,1.3
COCc1nnc(NS(=O)(=O)c2ccc([N+](=O)[O-])cc2)s1,0.8
CCN(C1CCCCC1)S(=O)(=O)c1ccc(S(=O)(=O)N(CC(=O)Nc2ccccc2)C2CC2)cc1,1.1
Cc1ccc(Cn2c3ccccc3c3cn[nH]c(=O)c32)cc1,i
CC1CN(C2CCN(S(=O)(=O)Cc3ccccc3)CC2)CC(C)O1 (configuration not stated),0.7
Cc1cc(Cl)ccc1OC(C)C(=O)Nc1ccccc1N1CCOCC1 (configuration not stated),1.1
Cn1c(CCCNC(=O)c2cccs2)nc2ccccc21,1.1
CCN(C(=O)c1ccc2c(OC)n(CC)nc2c1)c1ccc(OC)cc1,i
C=C(C)CSc1nnc([C@@H]2CCCN2C(=O)OC(C)(C)C)o1,0.3
CC(C)(C)NC(=O)c1cnn2c1NC(c1ccc(F)cc1)CC2C(F)(F)F (configuration not stated),i
CC(C)CNC(=O)COC(=O)CCC(=O)c1ccc(F)cc1,0.8
O=C(Nc1ccc(S(=O)(=O)Nc2cnc3ccccc3n2)cc1)c1ccc(Br)o1,0.2
Nc1c(C(=O)c2cccs2)oc2ccccc12,1.3
Cc1cccn2c(=O)c3cc(C(=O)N(C)C)n(C)c3nc12,0.9
COc1cc(/C=C2\C(=O)ON=C2c2ccccc2)cc(OC)c1OC,0.4
O=c1c2cc(Cl)cc(Cl)c2nc(CN2CCOCC2)n1-c1ccccc1F,0.0
O=C(NC12CC3CC(CC(C3)C1)C2)c1ccc(=O)oc1,0.3
Cc1cccc(NC(=O)COc2ccc(Br)cc2C)n1,0.1
CCC(=O)NCCc1nc2ccccc2n1Cc1ccc(C)cc1,0.7
Cc1ccc(Sc2c(C)nn(C(=O)c3cccc(S(=O)(=O)N4CCOCC4)c3)c2C)cc1,0.9
O=C(C1CCN(C2CC(=O)N(c3cccc(Cl)c3)C2=O)CC1)N1CCCC1 (configuration not stated),0.3

Three records picked at random from the list so far:
Structure,H5N1 antiviral
COCc1nnc(NS(=O)(=O)c2ccc([N+](=O)[O-])cc2)s1,0.8
CCC(c1nnnn1C(C)C)N1CCN(C2CCCC2)CC1 (configuration not stated),0.8
Cc1ccc(Cn2c3ccccc3c3cn[nH]c(=O)c32)cc1,i

Following part:
Structure,H5N1 antiviral
Cc1ccc2c(c1)c1c(n2CC2COC(C)(C)O2)C(=O)CCC1 (configuration not stated),i
CCCC1CC(CSC(=N)N)OC1=O (configuration not stated),i
N=c1c(C(=O)NCc2ccco2)cc2c(=O)n3ccccc3nc2n1Cc1ccccc1,4.4
O=C1c2ccccc2C(=O)N1Cc1nc2ccccc2c(=O)n1-c1ccccn1,0.7
COCCN1Cc2cccc(C(=O)NCc3ccccc3OC)c2C1=O,0.4
Cc1ccnc(N2CCC(C(=O)NC3CCCCCC3)CC2)n1,i
Cc1ccc(CSc2nc3ccccc3cc2C=O)cc1,1.8
Cc1ccc(CNC(=O)C2C3C=CC4(CN(Cc5cccnc5)C(=O)C24)O3)cc1 (configuration not stated),i
COc1ccc(C(=O)CSc2nnc(-c3ccc(S(=O)(=O)N4CCOCC4)cc3)o2)cc1,0.3
CCCCOC(=O)Nc1ccc(C)c(Cl)c1,i
CCN(CC)C(=O)c1ccc(NC(=O)CSc2nnnn2-c2cc(OC)ccc2OC)cc1,1.8
Cc1cn2nc(N)c3ccccc3c2n1,1.3
CCC(CC)C(=O)Nc1c(C)n(C)n(-c2ccccc2)c1=O,0.3
CNC(=S)NNC(=O)Cc1ccc(OC)c(OC)c1,i
COc1ccccc1C(=O)Nc1ccc(-c2nnc(SCC(=O)O)n2C)cc1,i
Cc1ccc(NC(=O)COC(=O)C2CCC(=O)N2)c(S(=O)(=O)N2CCOCC2)c1 (configuration not stated),i
CCC(=O)N=c1sc2c(C)cc(C)cc2n1CC(=O)OC,i
O=C(COC(=O)C1=COCCO1)Nc1ccc(Oc2ccccc2)cc1,i
CCC(C(=O)O/N=C(\N)c1ccc(Cl)cc1)c1ccccc1 (configuration not stated),i
Cc1ccc2cc3c(NC(=O)CC(C)C)nn(C)c3nc2c1,i
CCc1nc(SCC(=O)Nc2c(C)nn(C)c2C)c2cnn(-c3ccccc3)c2n1,0.7
CCOC(=O)c1[nH]c2ccc(F)cc2c1NC(=O)Nc1ccccc1OC,i
CC(C)Oc1ccc(C(=O)Nc2cc(=O)n(C)c(=O)n2C)cc1,1.1
CC(C)(C)NS(=O)(=O)c1ccc(NC(=O)NC2CCCCC2)cc1,i
Cc1ccc(NC(=O)C2CC=CCC2C(=O)N2CCCCC2)cc1 (configuration not stated),0.1
COc1cc(C2c3c(-c4ccccc4)n[nH]c3C(=O)N2c2ccccc2)ccc1O (configuration not stated),i
CCC1CCCCN1C(=O)CSc1nnc(CNC(=O)COc2ccc(Cl)cc2)o1 (configuration not stated),i
CCCNC(=O)c1c(C)cc(=O)oc1C,0.4
Cc1ccc(/C=N/Nc2ccc3c(C(F)(F)F)cc(C(F)(F)F)nc3n2)cc1,i
Cn1nc(C(F)(F)F)c(C(=O)Nc2ccc(F)cc2F)c1Sc1cccc(C(F)(F)F)c1,1.0

The list goes on; it opens with the two that closed the last part.
Structure,H5N1 antiviral
Cc1ccc(/C=N/Nc2ccc3c(C(F)(F)F)cc(C(F)(F)F)nc3n2)cc1,i
Cn1nc(C(F)(F)F)c(C(=O)Nc2ccc(F)cc2F)c1Sc1cccc(C(F)(F)F)c1,1.0
COc1cccc(CNc2nc3ccccc3n2CCN2CCCCC2)c1,0.2
CCNC(=O)N1c2ccc(OCC)cc2C(C)=CC1(C)C,0.6
Cn1ncc2nc[nH]c(=O)c21,i
O=c1c(-c2ccccc2)c(O)nc2ccccn12,1.4
O=C1CC(c2cccs2)CC(O)=C1C=NCCN1CCNCC1 (configuration not stated),0.4
CCOCC(=O)Nc1cc(C(=O)OC)ccc1C(=O)OC,i
O=c1c2ccccc2nc(COc2ccccc2)n1/N=C/c1ccco1,0.2
O=C(O)CCc1nc(-c2cccs2)no1,i
O=C(CN1CCN(c2ccccn2)CC1)NC(=O)NC1CCCCC1,i
CC(=O)C1=C(C)NC(SCC(=O)c2ccccc2)=C(C#N)C1CC(C)C (configuration not stated),0.2
CC(=O)N1CCC2(CC1)C(C#N)=C(N)OC1=C2C(=O)CC(C)(C)C1,i
COc1ccc(NC(=O)Nc2cc3oc4ccccc4c3cc2OC)cc1,i
Cc1ccc(S(=O)(=O)NCCNC(=O)C2CCCNC2=O)cc1 (configuration not stated),i
COc1ccc2c(c1)CCc1cc(C(=O)N3CCN(c4ccc(N5CCOCC5)nn4)CC3)sc1-2,i
CC(=O)Nc1c(O)nc(SCC(=O)Nc2sc3c(c2C#N)CCCCCC3)[nH]c1=O,1.2
Cc1ccc(S(=O)(=O)N2CCC(C(=O)N3CCC[C@H]3C(=O)NCc3ccccc3)CC2)cc1,0.6
CS(=O)(=O)N(CC(=O)NCCSC1CCCCC1)c1ccc2c(c1)OCO2,1.0
O=C(NCN1C(=O)C2C3C=CC(C3)C2C1=O)OC1CCCCC1 (configuration not stated),i
O=C(Nc1ccccc1)c1cccc(N2C(=O)CCC2=O)c1,0.2
CCOC(=O)CN(C(=O)CN1CCC(n2nnc3cc(C)ccc32)CC1)c1ccccc1,i
O=C1c2cccnc2-c2ncccc21,1.3
Cc1cccc(NC(=S)N2CCC(C(=O)c3ccc(F)cc3)CC2)c1C,i
O=C1CC(N2CCOCC2)C(=O)N1CCN1C(=O)CC(N2CCOCC2)C1=O (configuration not stated),i
Cc1ccc(S(=O)(=O)n2nc(OC(=O)c3ccco3)cc2N)cc1,i
COc1ccc(OCC(=O)Nc2ccccc2OC)cc1,i
CC(=O)OCCN1C(=O)c2cccnc2C1=O,i
CC(C)C(NS(=O)(=O)c1ccc2c(c1)oc(=O)n2C)C(=O)N1CCN(C2CCCCC2)CC1 (configuration not stated),1.4
CCCCn1c(-c2csc3c2CCC(C)C3)n[nH]c1=S (configuration not stated),0.4
NC(=O)c1sc2nc(-c3ccco3)ccc2c1N,2.5
COc1cccc(Nc2nc(NCCO)c3ccccc3n2)c1,i

Exported as labelled records: entries from further up
CC(=O)OCCN1C(=O)c2cccnc2C1=O
  H5N1 antiviral: i

Cc1ccc(S(=O)(=O)NCCNC(=O)C2CCCNC2=O)cc1 (configuration not stated)
  H5N1 antiviral: i

CCOC(=O)CN(C(=O)CN1CCC(n2nnc3cc(C)ccc32)CC1)c1ccccc1
  H5N1 antiviral: i

(cont.)
Structure,H5N1 antiviral
CCOn1c(=O)c(-c2ccc(OC)cc2)[n+]([O-])c2ccccc21,i
O=C(CCc1ccccc1)Nc1nnc(-c2ccc3c(c2)CCCC3)o1,0.6
O=C(Nc1ncnc2sc3c(c12)CCCCC3)c1ccccc1,4.1
CCOC(=O)C1CCCN(C(=O)CSc2nccn2C)C1 (configuration not stated),1.6
O=C(CSc1nnc(-c2cccnc2)n1Cc1ccccc1)N1CCOCC1,1.8
CCC1(c2ccccc2)NC(=O)N(CC(=O)Nc2cccc(C#N)c2)C1=O (configuration not stated),0.4
Cn1c(SCC(=O)Nc2cccc(O)c2)nnc1-c1ccc(S(=O)(=O)N2CCOCC2)cc1,0.3
C=CCc1c(C)[nH]c2ccc(C)cc2c1=O,i
COc1ccccc1NC(=O)N1CCCC1C(=O)NCc1ccc2c(c1)OCO2 (configuration not stated),0.1
Cc1cc(NS(=O)(=O)c2ccc(NC(=O)NC3CCCCC3)cc2)no1,2.2
O=C(Nc1ccc(F)cc1)C1CCCCC1,i
COc1ccccc1NC(=O)c1ccc(N)cc1,i
CSc1nnc2c(n1)OC=Nc1ccccc1-2,i
OCC(O)C(O)C(O)C(O)C1NCCS1 (configuration not stated),i
CCO/C=N/c1c(C#N)c2c(c(=S)n1C)COC(C)(C)C2,1.2
Cn1c(=O)c2c(nc(CN3CCN(C(c4ccccc4)c4ccccc4)CC3)n2CC(N)=O)n(C)c1=O,0.6
Cc1cccc(NC(=O)Cn2c(C)c(C#N)c3ccccc32)c1C,0.7
CCc1nc(NCCN2CCOCC2)c2oc3ccccc3c2n1,0.0
O=C(NCc1cccs1)C1CCCN1C(=O)Nc1ccccc1 (configuration not stated),0.5
O=S(c1ccc2ccccc2c1)c1cnns1 (configuration not stated),3.8
O=C(Cn1cnc2c(nnn2Cc2ccccc2)c1=O)N1CCCc2ccccc21,i
NC(=O)c1ccsc1NC(=O)COc1ccccc1,3.0
CC(=O)N1C2CCCCC2S[C@H]2CCCCC21 (some centres not stated),0.4
N#Cc1c(NC(=O)CSc2nnc(-c3ccncc3)n2CC2CCCO2)sc2c1CCCC2 (configuration not stated),1.7
COc1ccccc1CN(C(=O)c1ccco1)C(C(=O)NC1CCCC1)c1ccncc1 (configuration not stated),i
O=C(Nc1nc(-c2cccc([N+](=O)[O-])c2)cs1)C(c1ccccc1)c1ccccc1,i
COc1cc(C(=O)N2CCC(c3nc(-c4cccnc4)no3)CC2)cc(OC)c1OC,i
CCn1ncc(Br)c1C(=O)Nc1cc(C)ccc1F,i
Cc1nc2ccc(S(=O)(=O)NCC(=O)NCc3ccc4c(c3)OCO4)cc2s1,0.5
CCOc1cccc(OCC)c2c(C)[n+](CC3CCCO3)c(C)c1-2 (configuration not stated),1.3
CC(=O)Oc1cccc(N2C(=O)C3C4C=CC(C4)C3C2=O)c1 (configuration not stated),0.3
Cc1ccc(-c2c3c(=O)n(C)c(=O)n(C)c3cn2Cc2ccccc2)cc1,1.4
Cc1ccc(C(=O)N(c2ccccn2)C(C)c2ccco2)cc1 (configuration not stated),0.3
c1ccc(-c2nc(N3CCNCC3)nc3ccccc23)cc1,i
O=C(CSc1n[nH]c(-c2ccccc2)n1)c1ccc(O)c(O)c1,i
O=C(COC(=O)C1CCCCC1)Nc1ccc(N2CCCCC2)cc1,0.5
COc1cc(SC)ccc1C(=O)OC1CCOC1=O (configuration not stated),i
CCOC(=O)C1=C(N)OC2=C(C(=O)CCC2)C12C(=O)N1c3c(ccc(C)c32)C(C)=CC1(C)C (configuration not stated),1.0
O=C(NCC1CCCO1)c1cc(C(=O)C2CC2)c[nH]1 (configuration not stated),i
CCCCN=Cc1c(O)n(-c2c(C)cc(C)cc2C)c(=O)[nH]c1=O,i
COCc1cc(=O)[nH]c(/N=C(\N)Nc2ccccc2C)n1,i
N#CC1=C(N)Oc2c(ccc3cccnc23)C1c1cccnc1 (configuration not stated),1.9
CN(C)C(=O)Oc1ccc2ccccc2c1Cl,2.4
COc1cc(NS(=O)(=O)c2ccc(F)cc2)c(OC)cc1NC(C)=O,i
CC(C)N(Cc1nc(-c2ccccc2)no1)C(=O)CN1C(=O)c2ccccc2C1=O,i
CCOC(=O)Cn1nnc(-c2cccc(OC)c2)n1,i
C=CCOc1ccccc1/C=C/C(=O)O,0.3
O=C(COc1ccc(S(=O)(=O)NC2CCCCC2)cc1)N1CCN(c2ccc(F)cc2)CC1,0.6
Cc1ccc2nc(NC(=O)COC(=O)c3ccc(Br)o3)sc2c1,i

Only part of the results is shown; the hit share may differ from the screen's.
